# Rango release inh: qHTS Assay for Inhibitors of RanGTP induced Rango (Ran-regulated importin-beta cargo) - Importin beta complex dissociation. Potency, µM (highest dose often 46.1 µM), inactives show at the highest dose activity change, negative = inhibition. 340,000 compounds, 0.071% hits. Biochemical FRET Rango-importin beta, RanGTP-induced dissociation. Snurportin-1 (Homo sapiens) + GTP-binding nuclear protein Ran (Homo sapiens) + Importin …; active means falling FRET ratio curve, often poorly fitted, with flat reads before Ran was added; inconclusive means other falling curves, or compound fluorescence or quenching; inactive means flat or rising ratio curve;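 note: potency is the fitted concentration of half-maximal effect; % of control where 0% means no effect; nearly all actives have a fitted effect of over 45% in size; -100% = wells without RanGTP and RCC1; the record marks most hits as doubtful in a second field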
#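 FRET read at 45 min, room temperature: inhibitors block the CFP/YFP signal rise when RanGTP (0.6 uM Ran, 2 mM GTP, 0.2 uM RCC1) frees Rango (0.1 uM) from importin beta (0.25 uM). Pre-read after 5 min compound exposure flags interference.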
# GLA inh pH 4.5: qHTS Assay for Inhibitors of Human alpha-Galactosidase at pH 4.5; Alpha-galactosidase A (Homo sapiens), P06280; AID 1467, 2008; purified enzyme, 4-MU-alpha-Gal fluorescence, pH 4.5; activity change, negative = inhibition, % at 105 µM; 230,000 tested, under 10 active; inconclusive = small, poorly fitted or top-dose-only inhibition, or a rising curve; inactive = flat fitted curve, though single readings scatter; no compound was filed as active;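 note: 0% = full activity with enzyme and -100% = basal without enzyme; dose as in the result columns while the protocol names 77 µM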
# Rango complex inh: qHTS Assay for Inhibitors of Rango (Ran-regulated importin-beta cargo) - Importin beta complex formation. Importin subunit beta-1 (Homo sapiens), Q14974. Rango CFP/YFP FRET sensor + importin beta, 45 min. Potency, µM (doses to about 92.2 µM), without a hit: at the highest dose inhibition of complex formation. 340,000 compounds, 0.031% hits. AID 540263, 2011; active = rising FRET ratio curve, often small or poorly fitted; inconclusive = mostly compound fluorescence or quenching in the first reads; inactive = flat curves in all reads;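 note: potency is the fitted concentration of half-maximal effect; 0% = DMSO wells and 100% = buffer wells lacking importin beta; nearly all actives have a fitted effect of over 15% in size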
# Target sequence (Q14974 whole entry, looked up): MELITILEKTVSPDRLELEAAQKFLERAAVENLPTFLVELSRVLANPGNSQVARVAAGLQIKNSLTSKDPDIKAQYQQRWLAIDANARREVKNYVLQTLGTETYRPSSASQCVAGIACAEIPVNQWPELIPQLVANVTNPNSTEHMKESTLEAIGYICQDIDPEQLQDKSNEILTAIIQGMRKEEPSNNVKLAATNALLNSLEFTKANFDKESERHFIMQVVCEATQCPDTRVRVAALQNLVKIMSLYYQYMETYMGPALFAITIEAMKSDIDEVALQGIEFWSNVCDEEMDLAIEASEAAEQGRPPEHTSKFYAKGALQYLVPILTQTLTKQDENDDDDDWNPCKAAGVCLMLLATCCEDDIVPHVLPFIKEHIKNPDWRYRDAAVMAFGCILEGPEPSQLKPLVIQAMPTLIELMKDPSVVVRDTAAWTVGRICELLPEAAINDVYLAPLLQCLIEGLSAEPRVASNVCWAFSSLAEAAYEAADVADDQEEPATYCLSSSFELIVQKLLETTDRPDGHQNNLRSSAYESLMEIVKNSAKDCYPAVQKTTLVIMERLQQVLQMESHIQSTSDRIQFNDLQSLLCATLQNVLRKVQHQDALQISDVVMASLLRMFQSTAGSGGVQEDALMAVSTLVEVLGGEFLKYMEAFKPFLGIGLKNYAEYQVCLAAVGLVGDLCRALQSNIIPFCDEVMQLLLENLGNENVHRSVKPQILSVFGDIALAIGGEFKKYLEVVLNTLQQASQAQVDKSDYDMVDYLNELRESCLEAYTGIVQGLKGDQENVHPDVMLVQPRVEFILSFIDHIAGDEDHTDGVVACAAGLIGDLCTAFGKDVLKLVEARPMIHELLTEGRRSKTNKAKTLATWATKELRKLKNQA
#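 FRET biosensor (snurportin 1 IBB flanked by EYFP and cerulean), 50 nM, with compound 5 min, then 0.125 microM importin beta in PBS, 1 mM DTT, 0.02% Tween-20, 0.1% BSA. CFP/YFP ratio read after 45 min at room temperature; pre-read flags interference.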
# miR-21 FLuc: qHTS Assay for Modulators of miRNAs and/orActivators of miR-21. Potency, µM (top dose mostly 38.3 µM), for inactives: at the highest dose reporter change, positive = more light. HeLa miR-21 FLuc reporter, luciferase, 48 h. 340,000 tested, under 10 active. AID 2288, 2010; active = well fitted rising curve with a large enough effect; inconclusive = small, poorly fitted or top-dose-only effect; inactive = no such curve, though single readings can be large or run the other way;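 note: % of control where 0% means no effect; miR-21 action dims this reporter so a rising signal means less miR-21 action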
#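 Using DMEM plus 10% FBS, HeLa miR-21-FLuc cells are incubated with test compounds (final up to about 40uM) for 48 hours; firefly luciferase signal is then imaged following reagent-mediated lysis.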
# Starred values were filed as active, the others as inactive; ? = inconclusive; . = no result given; & = joins results of further samples.
Rango release inh	Rango complex inh	GLA inh pH 4.5	miR-21 FLuc	SMILES
-7%	0.1%	.	-2%	CCOC(=O)c1c(S(=O)(=O)Nc2ccc(C)c(F)c2)c(C)n(C)c1C
4%	6.4%	3	-5%	CCOP(=O)(OCC)C(C#N)=C1SCN(c2ccc(Cl)cc2)CS1
-5%	-3.4%	-4	-8%	COC(=O)c1c(NC(=O)COC(=O)c2ccc(Cl)cc2[N+](=O)[O-])sc2c1CCCCC2
-7%	-0.4%	4	-2%	CC(C)[C@H](NC(=O)c1ccco1)C(=O)OCc1cc(=O)n2c(n1)sc1ccccc12
-13%	?	.	.	CN(CC(=O)Nc1ccc(F)c(F)c1F)C(=O)C1CCC1
-9%	-0.8%	.	-27%	COc1cccc(Nc2nc(-c3sc(C)nc3C)cs2)c1
-6%	0.0%	.	-11%	CNS(=O)(=O)c1cc(S(=O)(=O)NC)c2cccc3c2c1NC3=O
3%	0.3%	.	9%	COc1ccc(-n2c(=S)[nH]c3cc(C(=O)NCCCN4CCOCC4)ccc3c2=O)cc1OC
0%	-6.0%	-5	-3%	Cc1ccccc1S(=O)(=O)Cc1ccc(C(=O)NCCCOC(C)C)o1
-20%	-2.7%	.	12%	Cc1cc(/C=N/NC(=O)c2cc3ccccc3o2)c(C)n1C
0%	-0.3%	5	-6%	COC(=O)c1ccccc1Oc1nc(Cl)cc(OC)n1
?	?	-5	-22%	COc1ccccc1NC(=O)c1cc2ccc(O)cc2o/c1=N\O
16%	-0.3%	-5	13%	O=C(c1ccc(NS(=O)(=O)c2ccc3c(c2)OCCO3)cc1)N1CCCCC1
-3%	-4.6%	.	-52%	CC1CCCCN1C(=O)c1cc(-c2ccc3c(c2)OCO3)on1 (configuration not stated)
-1%	-3.7%	4	20%	Clc1ccc(-c2csc3ncnc(NCCN4CCOCC4)c23)cc1

# Part of the list above in order of number of heavy atoms, smallest number first:
Rango release inh	Rango complex inh	GLA inh pH 4.5	miR-21 FLuc	SMILES
0%	-0.3%	5	-6%	COC(=O)c1ccccc1Oc1nc(Cl)cc(OC)n1
-13%	?	.	.	CN(CC(=O)Nc1ccc(F)c(F)c1F)C(=O)C1CCC1
-3%	-4.6%	.	-52%	CC1CCCCN1C(=O)c1cc(-c2ccc3c(c2)OCO3)on1 (configuration not stated)
?	?	-5	-22%	COc1ccccc1NC(=O)c1cc2ccc(O)cc2o/c1=N\O
-1%	-3.7%	4	20%	Clc1ccc(-c2csc3ncnc(NCCN4CCOCC4)c23)cc1
16%	-0.3%	-5	13%	O=C(c1ccc(NS(=O)(=O)c2ccc3c(c2)OCCO3)cc1)N1CCCCC1
3%	0.3%	.	9%	COc1ccc(-n2c(=S)[nH]c3cc(C(=O)NCCCN4CCOCC4)ccc3c2=O)cc1OC

# Additional entries follow.
Rango release inh	Rango complex inh	GLA inh pH 4.5	miR-21 FLuc	SMILES
19%	3.8%	3	-6%	CCC(Sc1nc2ccccc2o1)C(=O)Nc1nnc(C)s1 (configuration not stated)
10%	-5.4%	.	-20%	Cc1cc(Cl)c2oc(C(=O)N3CCN(C4CCS(=O)(=O)C4)CC3)c(C)c2c1 (configuration not stated)
14%	-0.8%	-6	-27%	COc1cc2c(cc1NC(=O)COC(=O)Cn1cnc3ccccc31)oc1ccccc12
?	-0.2%	-7	0%	O=C(NC1CCCCC1)C(c1ccco1)N(Cc1cccnc1)C(=O)C1COc2ccccc2O1 (configuration not stated)
-22%	?	.	.	O=C1C(Cc2ccccc2)Nc2ncnc(N3CCN(c4ccccc4)CC3)c2N1Cc1ccccc1 (configuration not stated)
.	.	-27	-5%	COc1cccc(C2C3=C(Nc4[nH]n(-c5ccccc5)c(=O)c42)c2ccccc2C3=O)c1 (configuration not stated)
-15%	-1.8%	0	-36%	CC(=O)Nc1ccc2nc(SCC(=O)Nc3ccc(N4CCOCC4)c(Cl)c3)sc2c1
2%	0.7%	8	1%	Cc1c(CCO)c(=O)n(-c2ccccc2)n1S(=O)(=O)c1ccc(Cl)cc1
?	1.4%	.	2%	CC(C)(C)OC(=O)CNC(=O)c1nc[nH]c1C(=O)N1CCN(C(=O)OC(C)(C)C)CC1
-14%	0.2%	.	.	CN(CC(=O)Nc1cccc(F)c1)C(=O)CN1C(=O)C2CC=CCC2C1=O (configuration not stated)
16%	0.0%	?	-2%	Cc1cc(C)c(S(N)(=O)=O)c(C)c1N(C)S(=O)(=O)c1ccccc1
-6%	-7.0%	.	3%	O=C(NCCCCNC(=O)c1ccccc1Cl)c1ccccc1Cl
-6%	-1.9%	-1	-16%	CCO/C=C/C(O)(CNC(=O)c1ccc(C(C)(C)C)cc1)C(F)(F)F (configuration not stated)
3%	-2.5%	-14	-11%	C=CCN(CC=C)C(=O)Nc1cc(Cl)ccc1OC
-3%	-3.8%	3	-11%	CC(=O)c1c(N2CCOCC2)nc(=S)n(-c2cc(C)ccc2C)c1C
-3%	2.4%	.	.	O=Cc1cccnc1SCc1ccccc1
.	.	13	-1%	S=c1nc(-c2ccccc2)n(Cc2ccco2)c2c1CCCC2
1%	-0.8%	.	.	Cc1ccc(-c2csc3ncnc(SCC(=O)NCC4CCCO4)c23)cc1 (configuration not stated)
-11%	1.5%	-1	-1%	Cc1ccc(N(C(=O)c2cc3ccccc3oc2=O)C2C=CS(=O)(=O)C2)cc1 (configuration not stated)
-15%	0.4%	.	.	COCCN(C(=O)c1oc2ccccc2c1COC)c1c(N)n(CC(C)C)c(=O)[nH]c1=O
0%	1.1%	.	28%	COc1ccc(-c2csc(NC(=O)C3CCN(C(=O)c4ccc(F)cc4)CC3)n2)cc1OC
-3%	0.8%	.	24%	Cc1ccc(NC(=O)c2cnn(-c3ccccc3)c2C)cc1C
-7%	-0.7%	.	3%	Cc1ccc(C)c(S(=O)(=O)NNC(=O)Nc2ccccc2Cl)c1
-13%	-1.3%	.	4%	COc1ccc(/C=C(\NC(=O)c2ccc([N+](=O)[O-])cc2)C(=O)NCCCN2CCOCC2)cc1
13%	3.7%	-2	-28%	Cc1ccccc1SCC(=O)Nc1cccc(C#N)c1
-10%	-1.1%	6	0%	Cc1cccc(C)c1NC(=O)N1C2CCCC1CC(NC(=O)C(C)(C)C)C2 (configuration not stated)
-15%	0.1%	-6	-70%	Cc1ccc(S(=O)(=O)Oc2cccc(/C=N/Nc3ccc(C(=O)O)cc3)c2)cc1
1%	2.4%	.	0%	CC1=NN(c2ccccc2C(=O)O)C(=O)C1N=Nc1ccccc1 (configuration not stated)
-2%	0.2%	.	.	O=C(NNC(=O)c1cc2ccccc2[nH]1)OCc1ccccc1
-4%	1.1%	?	0%	Cn1ncc(N2CCN(S(=O)(=O)c3ccc(Br)cc3)CC2)c(Cl)c1=O
4%	-1.6%	11	-8%	CCCCCCC(=O)Nc1ccc(C(=O)N/N=C/c2cccnc2)cc1
11%	2.6%	-2	-12%	COc1cc(NC(=O)CSc2nc(C)c(C)c(C)n2)cc(OC)c1
0%	-0.3%	.	16%	CCc1cc(=O)n2[nH]c(C)c(-c3ccc(OC)cc3)c2n1
?	7.5%	.	-3%	O=c1ccc(-c2ccc(S(=O)(=O)N3CCN(c4ccccc4)CC3)o2)n[nH]1
-28%	-5.6%	3	-3%	CC(C)[C@H](NC(=O)[C@@H]1Cc2ccccc2CN1C(=O)OC(C)(C)C)C(=O)NCC1CCC(C(=O)O)CC1 (some centres not stated)
-5%	-0.8%	6	-9%	CCn1c(N2CCN(CC(=O)c3ccc(OC)cc3)CC2)nc2ccccc21
-4%	?	.	-1%	NS(=O)(=O)c1ccc(CCNC(=O)C2CCCN2C(=O)OCc2ccccc2)cc1 (configuration not stated)
4%	0.2%	-18	-2%	Cc1cc(N2CCC(C(=O)NC3CCCCC3)CC2)nc(-c2ccccc2)n1
9%	-0.8%	.	.	O=C(NC1CC1)C1=C[C@H](c2coc3ccccc3c2=O)C[C@H](OCCCCO)O1
-1%	-0.6%	-18	0%	O=C(CNCC1CCCCC1)Nc1ccc(OC(F)(F)F)cc1
-11%	4.2%	4	-1%	CC(C)CCn1c(CN(C)Cc2ccccc2)nc2c1c(=O)n(C)c(=O)n2C
13%	0.6%	-21	-5%	N#Cc1cccc(C#N)c1N1CCC(C#N)CC1
-2%	-3.1%	.	.	COc1ccccc1NC(=O)C(C)OC(=O)CCNS(=O)(=O)c1ccc(C)c(C)c1 (configuration not stated)
-8%	0.7%	-10&-2	14%	COC(=O)c1ccc(C23CC4(C2)[C@H](CN(Cc2cccnc2)[C@@H]4c2ccccc2)C3c2ccccc2)cc1 (some centres not stated)
21%	0.6%	-1	-2%	CCOc1ccccc1N=C1SC(CC(=O)Nc2ccc(OC)cc2OC)C(=O)N1CCC1=CCCCC1 (configuration not stated)

# Fetched one by one from the entries so far (2):
Rango release inh	Rango complex inh	GLA inh pH 4.5	miR-21 FLuc	SMILES
-3%	2.4%	.	.	O=Cc1cccnc1SCc1ccccc1
-2%	-3.1%	.	.	COc1ccccc1NC(=O)C(C)OC(=O)CCNS(=O)(=O)c1ccc(C)c(C)c1 (configuration not stated)

# (next part)
Rango release inh	Rango complex inh	GLA inh pH 4.5	miR-21 FLuc	SMILES
3%	0.1%	-7	?	O=C(Nc1ccc(N2CCCCC2)cc1)c1ccccn1
10%	-3.3%	.	.	Cc1cc(C(=O)NCC(=O)Nc2c(C)cccc2C)c2ccccc2n1
-11%	-0.9%	.	-3%	NC(=O)COC(=O)c1ccc2c(c1)S(=O)(=O)c1ccccc1C2=O
13%	-0.3%	4	-35%	O=c1c2c3c(sc2ncn1/N=C/c1ccccc1)CCCC3
10%	12%	-25	-5%	CCOC(=O)c1ccc(NC(=O)CN2CCN(Cc3ccccc3)CC2)cc1
1%	-3.3%	-1	-28%	COc1ccc(-c2cn3cc(C(F)(F)F)cc(Cl)c3n2)cc1
-13%	-5.6%	.	11%	Cc1ccc(C(=O)N2CCc3cc4c(cc3C2C)OCCCO4)cc1 (configuration not stated)
1%	-0.4%	0	-37%	N#CCC(=N)N1CCN(c2ccccc2)CC1
-8%	1.6%	.	.	O=C1C=C(c2ccc(Cl)c(C(F)(F)F)c2)C[C@@H](c2ccc(F)cc2)C1
-2%	-0.6%	-3	1%	CCOC(=O)Oc1ccc2c(=O)c(Oc3cc(C)cc(C)c3)coc2c1
5%	-2.8%	-5	-23%	O=c1c(-c2ccc(F)cc2)coc2c3c(ccc12)OCCO3
-1%	0.4%	1	-8%	CC(=O)Nc1nnc(SCC(=O)c2ccc3c(c2)Cc2ccccc2-3)s1
9%	0.0%	4	-12%	CC1CCN(c2ccc(/C=N\Nc3nncn3N)cc2[N+](=O)[O-])CC1
4%	10%	-10	-1%	COc1ccc(-c2nc3c4ccccc4ccn3c2CN2CCCCC2)cc1
-7%	1.2%	.	.	CC(C)(C)c1csc(NC(=O)Cc2ccc(S(=O)(=O)N3CCOCC3)s2)n1
25%	?	-1	19%	Cc1nc2c(C)cccc2cc1C(=O)N/N=C/c1cccc([N+](=O)[O-])c1
26%	-0.5%	4	-9%	COc1ccc(NC(=O)OCCn2c([N+](=O)[O-])cnc2C)cc1
5%	-2.7%	10	9%	CC(=O)Nc1sc2c(c1C(c1cccc(F)c1)N1CCN(CCO)CC1)CCCC2 (configuration not stated)
-23%	?	-2	-12%	COc1ccc2cc(CN(CCc3ccccc3)Cc3nnnn3CC3CCCO3)c(=O)[nH]c2c1 (configuration not stated)
-20%	0.3%	1	-2%	COc1ccc(NS(=O)(=O)c2ccc(S(=O)(=O)N(C)C)cc2)cc1S(N)(=O)=O
-7%	0.4%	-1	-11%	CC(C)(C)NCCOCCOc1ccc(Cl)cc1C(C)(C)C
21%	5.6%	10	-8%	Cc1cc(C)nc(NS(=O)(=O)c2ccc(NC(=O)c3cccc(N4C(=O)CCC4=O)c3)cc2)n1
1%	-0.7%	.	.	Cc1cccc(C(=O)Nc2nsc(N)n2)c1

# Bioassay records deposited in PubChem by National Center for Advancing Translational Sciences (NCATS).

# Not all compounds are listed (hit frequency here may not be typical).
